VDR inh: blocks the human vitamin D receptor; P11473; VDR-SRC2-3 peptide fluorescence polarization, 2 h; Potency, µM, without a hit: max response, negative = inhibition, usual class: inhibitors; hit rate 0.93% among 400,000; active = well fitted inhibition curve with a large enough effect; inconclusive = small, poorly fitted or top-dose-only effect, or another doubt; inactive = no such curve, though single readings can be large or run the other way; also: series mostly up to about 120 µM
Target sequence (P11473 whole entry, looked up): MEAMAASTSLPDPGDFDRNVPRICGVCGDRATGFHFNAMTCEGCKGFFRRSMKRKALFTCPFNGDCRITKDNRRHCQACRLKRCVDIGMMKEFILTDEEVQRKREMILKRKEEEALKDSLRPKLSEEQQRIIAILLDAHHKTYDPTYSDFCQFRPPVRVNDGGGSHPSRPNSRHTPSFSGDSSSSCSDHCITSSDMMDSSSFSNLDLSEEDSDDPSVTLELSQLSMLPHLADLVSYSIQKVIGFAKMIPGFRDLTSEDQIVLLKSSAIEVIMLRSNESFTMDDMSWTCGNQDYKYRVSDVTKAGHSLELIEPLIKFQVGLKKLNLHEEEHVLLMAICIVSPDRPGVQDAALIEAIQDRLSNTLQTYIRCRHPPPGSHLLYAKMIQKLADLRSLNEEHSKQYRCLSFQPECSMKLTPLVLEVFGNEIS
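FP read-out; VDR + SRC2-3 coactivator peptide; 23 nl compound by pintool; 2 h RT incubation; reagents held at 4 deg C, protected from light.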
* = called active by the depositor; ? = inconclusive; & = joins results of further samples. % is scaled to controls: 0 for no effect and ±100 for the full control effect; potency is read from the fitted curve at half-maximal effect. Not all compounds are listed; count on the stated rates, not on these rows.

nr	Molecule	VDR inh
1	COc1ccc(C(=O)COC(=O)c2ccc(NC(=O)c3ccccc3)cc2)cc1	0%
2	COC(=O)c1ccc(CSc2nc3scc(-c4cccs4)c3c(=O)[nH]2)o1	3%
3	Cc1ccc(S(=O)(=O)NCCC(=O)Nc2ccncc2)cc1C	-10%
4	Cc1nnc(SCc2cc(=O)oc3ccc4ccccc4c23)n1Cc1ccccc1	-13%
5	CCOCCCNCc1cn(-c2ccc(F)cc2F)nc1-c1ccccc1C	18%
6	Cc1nc(SCc2c(F)cccc2Cl)c2c(=O)n(C)c(=O)n(C)c2n1	-12%
7	CCOc1ccccc1N(CC(=O)N1CCC(C(N)=O)CC1)S(=O)(=O)c1ccc(SC)cc1	-15%
8	Cc1ccc(-c2cc(C(=O)N3CCCC(C(F)(F)F)C3)c3ccccc3n2)o1 (stereo unspecified)	-12%
9	COc1ccc(S(=O)(=O)N(CC(=O)O)c2ccc(C)cc2)cc1	5%
10	CC1CCN(C(=O)c2ccc3c(c2)N(Cc2ccccc2)C(=O)c2ccccc2S3(=O)=O)CC1	-21%
11	Clc1cccc(-c2ccc(CNCCSc3nnnn3-c3ccccc3)o2)c1	5%
12	O=C1CC(N2CCC(c3nc4ccccc4o3)CC2)C(=O)N1c1cc(Cl)cc(Cl)c1 (stereo unspecified)	6%
13	O=C(COC(=O)c1ccc(-c2cnc3ccccc3n2)cc1)c1ccccc1	0%
14	COc1ccc(NC(=O)C(=O)c2cn(CC(=O)N3CCCC3)c3ccccc23)cc1OC	7%
15	Nc1cnnc(N/N=C\c2ccccc2)c1Cl	-16%
16	Cc1ccc(C(=O)Nc2nnn(C)n2)cc1	-11%
17	COc1ccc(CC(=O)N/N=C(/C)c2ccco2)cc1	-7%
18	CCCCCCCCC(C)O (stereo unspecified)	1%
19	COc1ccccc1NS(=O)(=O)c1ccc(C(N)=O)cc1	-5%
20	O=C(/C(=C/O)N=Nc1cccc(C(F)(F)F)c1)c1ccccc1	-4%
21	Cc1ccc(S(=O)(=O)/N=C2\C=C(Nc3ccc(O)cc3)C(=O)c3ccccc32)cc1	14%
22	Clc1ccccc1-c1nnc2n1CCCCC2	-8%
23	Cc1ccsc1C(=O)NC1CCCN(Cc2ccc(Cl)cc2)C1 (stereo unspecified)	-5%
24	CCCN(CCC)S(=O)(=O)c1ccc(NC(=O)Cc2cccs2)cc1	-8%
25	Cc1cc(C)c(NC(=O)CSc2nccn2C)c(C)c1	-5%
26	CC(=O)Nc1ccccc1NC(=O)C/C(C)=N/NC(=O)c1ccc([N+](=O)[O-])c(Cl)c1	4%
27	COC(=O)C/C=C/[C@@H](C)[C@H](NC(=O)OCC(Cl)(Cl)Cl)c1cccc(OC)c1	-3%
28	C#Cc1ccc(CN2CCN(Cc3ccsc3)C(CCO)C2)cc1 (stereo unspecified)	9%
29	COC(=O)C1(C)NC(c2ccco2)C2C(=O)N(c3ccc(F)cc3)C(=O)C21 (stereo unspecified)	-19%
30	O=C(c1ccc(F)cc1)c1ccc(N2CCCC2)cc1	15%
31	CCc1ncc(C)nc1CC	-5%
32	CCN(CC)/C(Sc1ccccc1)=C(\C(Cl)=C(Cl)Cl)[N+](=O)[O-]	-2%
33	COC(=O)N/N=C/c1ccc(OS(=O)(=O)c2ccc(C)cc2)c(OC)c1	-15%
34	COc1ccc(CCNC(=O)c2cc(S(=O)(=O)N3CCCC(C)C3)cn2C)cc1OC (stereo unspecified)	3%
35	CCn1c(C)nc2cc(N)ccc21	6%
36	COc1ccccc1N1CCN(S(=O)(=O)c2cccc3nsnc23)CC1	10%
37	Cc1cccc(C(=O)Oc2ccc3ccc(O)cc3c2)c1	-19%
38	O=C(CCn1cccn1)N1CCCC(N2CCN(c3cccc(Cl)c3)CC2)C1 (stereo unspecified)	-2%
39	O=C1C2CCCN2C(c2ccccc2F)N1c1ccc(Cl)cc1 (stereo unspecified)	10%
40	COc1ccccc1C(=O)COC(=O)Cn1[nH]c(=O)c2ccccc2c1=O	-7%

Some of these compounds in order of length of the SMILES, falling:
nr	Molecule	VDR inh
14	COc1ccc(NC(=O)C(=O)c2cn(CC(=O)N3CCCC3)c3ccccc23)cc1OC	7%
2	COC(=O)c1ccc(CSc2nc3scc(-c4cccs4)c3c(=O)[nH]2)o1	3%
3	Cc1ccc(S(=O)(=O)NCCC(=O)Nc2ccncc2)cc1C	-10%

Next structures follow.
nr	Molecule	VDR inh
41	COc1ccc(-c2c3c(nc4sc(C(=O)Nc5ccccc5F)c(N)c24)CC(C)(C)CC3=O)cc1	-3%
42	CCOc1ccc(S(=O)(=O)N2CCCCC2)cc1NC(=O)Cc1cccs1	-12%
43	CCOC(=O)c1nn(-c2ccc(C)cc2)c(=O)cc1OCC(=O)Nc1cc(C)ccc1OC	9%
44	Cc1noc(C)c1C(=O)Nc1cccnc1	-14%
45	COc1ccc(S(=O)(=O)N2CCCC(C(=O)O)C2)cc1 (stereo unspecified)	15%
46	C/C(CC(C)C)=N\NS(=O)(=O)c1ccc(C)c([N+](=O)[O-])c1	-21%
47	COc1ccc(CN2C(=O)C3C4C=CC(C4)C3C2=O)cc1 (stereo unspecified)	13%
48	O=C(NCCO)/C(=C\c1cccc([N+](=O)[O-])c1)NC(=O)c1ccco1	14%

By substructure, the entries above containing an NH in an aromatic ring.
nr	Molecule	VDR inh
2	COC(=O)c1ccc(CSc2nc3scc(-c4cccs4)c3c(=O)[nH]2)o1	3%
40	COc1ccccc1C(=O)COC(=O)Cn1[nH]c(=O)c2ccccc2c1=O	-7%

(listing goes on)
nr	Molecule	VDR inh
49	Cn1cc(S(=O)(=O)N2CCCCC2)cc1C(=O)Nc1ccc(OC(F)(F)F)cc1	18%
50	CCCCN1C[C@H](O)[C@@H](O)[C@H](O)[C@H]1CO	-7%
51	COc1ccc(CC(=O)Nc2cc(S(=O)(=O)N3CCCCC3)ccc2C)cc1	29%
52	Cc1cc(C)cc(N2C(=O)N(c3ccccc3C)C3CS(=O)(=O)CC32)c1 (stereo unspecified)	-5%
53	COc1c(Cl)cc(C(=O)NCc2ccco2)cc1Cl	-18%
54	CCOc1ccc(CNCCSc2nnnn2C)cc1OC	10%
55	Cc1nc(SCC(=O)Nc2ccc3c(c2)OCCO3)nc(C)c1C	6%
56	CCOC(=O)c1cccc(NC(=O)c2ccccc2C)c1	3%

Some of the entries so far, with values ahead of the structure:
| No. | VDR inh | molecule |
| --- | --- | --- |
| 31 | -5% | CCc1ncc(C)nc1CC |
| 41 | -3% | COc1ccc(-c2c3c(nc4sc(C(=O)Nc5ccccc5F)c(N)c24)CC(C)(C)CC3=O)cc1 |

Next section
nr	Molecule	VDR inh
57	CCN(CC)CCNC(=O)c1cc2ccccc2nc1Cl	6%
58	COc1ccc(CCNc2ncnc3c2c(-c2ccccc2)cn3-c2ccc(Cl)cc2)cc1OC	-3%
59	COc1cccc([C@@H]2Oc3ccc(OC)cc3C[C@H]2OC(=O)NS(=O)(=O)c2ccc(C)cc2)c1	3%
60	COc1ccc(C(CNC(=O)c2ccc(-c3ccccc3)cc2)N(C)C)cc1OC (stereo unspecified)	11%
61	CC(=O)n1nc(-c2ccc(C)cc2)nc1NCc1ccc(F)cc1	-2%
62	Cc1cc(C)nc(NS(=O)(=O)c2ccc(N/C=C\C(=O)c3ccc(Cl)cc3)cc2)n1	-15%
63	CCN(c1cccc(C)c1)c1nc2ccsc2c(=O)s1	-10%
64	CCOc1ccc(NC(=S)c2ccc3ccccc3n2)cc1	11%
65	CC1(C)Cc2ccccc2C(/C(C#N)=N/O)=N1	-5%
66	CN(C)S(=O)(=O)N1CCC(Oc2cccc(C(=O)N3CCCCCC3)c2)CC1	0%
67	COc1ccc(Nc2nc(-c3ccccc3)cs2)cc1	-8%
68	COc1ccc(C(=O)OCC(=O)Nc2cccc(C(C)=O)c2)cc1OC	2%
69	COc1ccc(C(=O)O)cc1NC(=S)NC(=O)/C=C/c1ccc(C(C)C)cc1	-21%
70	CC(OC(=O)CNC(=O)C12CC3CC(CC(C3)C1)C2)C(=O)Nc1ncc(Cl)cc1Cl (stereo unspecified)	-3%
71	Cc1ccc(-n2c(O)c(C=NC3CCS(=O)(=O)C3)c3ccccc3c2=O)c(C)c1 (stereo unspecified)	-5%
72	COc1ccccc1-n1c(SCC(=O)NC(C)(C)C)nc(O)c(Cc2ccccc2)c1=O	-3%
73	COc1ccc(-c2nc(C#N)c(N3CCc4ccccc4C3)o2)cc1OC	9%
74	CCC(=O)NCC(=O)OCC(=O)c1ccccc1	-26%
75	CN(C)c1ccc(/C=N/NC(=S)NCc2ccccc2)cc1	-27%
76	CCN(CC(=O)NCCc1ccc(Cl)cc1)Cc1nc2ccccc2c(=O)[nH]1	4%
77	C=CCn1c(SCC#N)nnc1-c1ccc2ncccc2c1	2%
78	O=C(O)Cn1c(CC(=O)N2CCCC2)nc2ccccc21	0%
79	COc1ccc(CCNC(=O)C2CCCN(c3nn4c(=O)cc(C)nc4s3)C2)cc1OC (stereo unspecified)	5%
80	COc1ccc(N2CCN(C(=O)CCc3cc(OC)c(OC)c(OC)c3)CC2)cc1	16%
81	Cc1cc(C)c(NC(=O)CSc2nc3c([nH]c4ccccc43)c(=O)n2C)c(C)c1	8%
82	O=C(Cc1cccc(NC(=O)C2CCCN(C(=O)c3ccccc3)C2)c1)Nc1ccc(C(=O)N2CCOCC2)cc1 (stereo unspecified)	-11%
83	CCN1CCN(c2ccc(NC(=O)c3ccccc3F)cc2Cl)CC1	-7%
84	CCS(=O)(=O)NCC(c1cccnc1)N1CCN(c2ccccc2F)CC1 (stereo unspecified)	2%
85	O=C(/C=C/c1c(Cl)cccc1Cl)NCCc1ccccc1	-10%
86	O=c1c([N+](=O)[O-])c(O)c2cccc3c2n1CCC3	-7%
87	CCC(=O)C1CCCN(C(=O)c2ccc(OC3CCN(C(=O)c4cccnc4)CC3)cc2)C1 (stereo unspecified)	-10%
88	Cc1ccc(-c2cn3c4c(=O)n(C)c(=O)n(C)c4nc3n2-c2cccc(Cl)c2)cc1	-2%

Filtered by structure, those above containing a COOH group
nr	Molecule	VDR inh
9	COc1ccc(S(=O)(=O)N(CC(=O)O)c2ccc(C)cc2)cc1	5%
45	COc1ccc(S(=O)(=O)N2CCCC(C(=O)O)C2)cc1 (stereo unspecified)	15%
69	COc1ccc(C(=O)O)cc1NC(=S)NC(=O)/C=C/c1ccc(C(C)C)cc1	-21%
78	O=C(O)Cn1c(CC(=O)N2CCCC2)nc2ccccc21	0%

Next records follow:
nr	Molecule	VDR inh
89	OC(CNc1ccccc1)Cn1ccc2ccccc21 (stereo unspecified)	-7%
90	COCCNc1nc2c(c(=O)[nH]c(=O)n2C)n1CCCc1ccccc1	-15%
91	CCO[C@H]1OC(C(=O)N2CCOCC2)=C[C@@H](c2ccc(Br)cc2)[C@@H]1CCCO	-8%
92	Cc1ccsc1/C=C(\C(=O)c1ccc(OC(C)C)cc1)c1nc2ccccc2o1	-23%
93	Cc1cc(O)c(C(C)C)cc1C1(c2cc(C(C)C)c(O)cc2C)OC(=O)c2ccccc21	-4%
94	CC(C)(C)OC(=O)C[C@H]1C/C=C\C[C@@H](CC(=O)N[C@@H](CO)Cc2ccccc2)C(=O)NCCOC1=O	9%
95	CCc1c(O)nc(SCC(=O)NCc2ccco2)[nH]c1=O	8%
96	COC(=O)C1=C(COc2ccc(C=O)cc2OC)NC(=O)NC1c1cc(C)ccc1C (stereo unspecified)	4%
97	COc1ccc(CNC(=O)CN(Cc2ccc(Cl)cc2)S(C)(=O)=O)cc1	-8%
98	CCOC(=O)c1c(N)sc2c(OCC)c(Br)ccc12	8%
99	CCOc1ccc(Nc2oc(-c3ccccc3Cl)nc2C#N)cc1	6%
100	Cc1nnc(N/N=C/c2cccc(OCc3ccc(Cl)c(Cl)c3)c2)n1N	?
101	O=C1O[C@@H](c2ccc(O)cc2)Cc2cccc(O)c21	2%
102	CN(C)S(=O)(=O)c1ccc(NC(=O)CN2CCN(C(c3ccccc3)c3ccccc3)CC2)cc1	-16%
103	CC1=C(C#N)C(c2cccnc2)C2=C(CCCC2=O)N1 (stereo unspecified)	-4%
104	Cc1cn2c(=O)cc(COC(=O)c3cccc(NC(=O)c4ccccc4Cl)c3)nc2s1	4%
105	O=C(CSc1ccc2nnc(-c3cccc(F)c3)n2n1)NCC1CCCO1 (stereo unspecified)	-26%
106	Cc1nc2ccc(NC(=O)Cc3ccc4c(c3)OCCO4)cc2s1	14%
107	CCCn1ncc(CN2CCC(n3nccc3NC(=O)c3ccccc3OC)CC2)c1C	-9%
108	O=c1[nH]ccc2c(O)cccc12	-4%&-13%
109	COc1cc2c(cc1OC)-c1cc(OCc3cccnc3)nc(=O)n1CC2	-2%
110	CCCCn1c(=N)c(S(=O)(=O)c2ccccc2)cc2c(=O)n3cccc(C)c3nc21	9%
111	CCOc1cccc(NC(=O)C2CC(=O)N(C)C(=Nc3cccc(OC)c3)S2)c1 (stereo unspecified)	-3%
112	COc1ccc(C(=O)N2CC(=O)N(CCc3ccccc3)C(=O)C2)cc1OC	-6%
113	CS(=O)(=O)c1ccc(C(=O)OCc2nnc(-c3ccccc3)o2)cc1[N+](=O)[O-]	?
114	CC(=O)c1ccccc1C(=O)N1CCCC(CNC(=O)c2ccccc2Cl)C1 (stereo unspecified)	?
115	COc1ccc(S(=O)(=O)NCC(c2cccnc2)N2CCN(Cc3ccccc3)CC2)cc1 (stereo unspecified)	5%
116	Cc1ccccc1C(N)c1ccncc1 (stereo unspecified)	15%
117	CCOc1ccc(N2CC(C(=O)NCCc3ccc(S(N)(=O)=O)cc3)CC2=O)cc1 (stereo unspecified)	-4%
118	COc1ccc(NS(=O)(=O)c2cccc(C(=O)Nc3ccccc3C(=O)O)c2)cc1	5%
119	CCOc1ccccc1/C=N/n1c(C2CCCCC2)n[nH]c1=S	-14%
120	COc1ccc2c(c1)c1c(c(=O)n(-c3ccc(C)cc3)c(=O)n1CC(=O)Nc1cc(C)ccc1C)n2C	2%
